Bioassay records (PubChem)
SARS PLpro yeast = inhibitors of SARS-CoV papain-like protease in yeast; S. cerevisiae expressing SARS-CoV PLpro, growth rescue; control for the full effect not named in the record; 330,000 tested, 0.19% active; Potency, µM (highest dose often 32.9 µM), inactives show at the top dose activity, positive = growth rescue; note: 0% is about no effect; nearly all actives have a fitted effect of over 55% in size; growth read by luminescence after 48 h
Lassa entry inh = Lassa virus entry inhibition; Lassa virus pseudotype entry inhibition, cell reporter; control for the full effect not named in the record; 300,000 tested, 1.2% active; AID 540256; Potency, µM (titrated, usually from 37.9 µM), for inactives: at the top dose activity change, negative = inhibition, actives largely listed as inhibitors; active means well fitted inhibition curve with a large enough effect; inconclusive means small, poorly fitted or top-dose-only effect, or effect the other way; inactive means flat fitted curve, though single readings scatter; tested in HEK293 cells; note: % is set by controls: 0 for no effect and ±100 for the full control effect; nearly all actives have a fitted effect of over 50% in size; luciferase read-out
StopGo reporter = FMDV 2A StopGo reporter, luciferase signal. human cells with a luciferase reporter of 2A StopGo recoding; control for the full effect not named in the record. Potency, µM (doses to about 57.9 µM), without a hit: top-dose signal change, negative = less light. 410,000 tested, 1.2% active; active = well fitted falling curve with a large enough effect; inconclusive = small, poorly fitted or top-dose-only effect; inactive = no such curve, though single readings can be large or run the other way; tested in HEK293T cells; note: % is set by controls: 0 for no effect and ±100 for the full control effect; nearly all actives have a fitted effect of over 45% in size; luciferase light after 4 h
Cruzain Triton = blocks cruzain activity in presence of Triton detergent. P25779. Potency, µM, without a hit: max response, negative = inhibition, actives largely listed as inhibitors. 200,000 tested, 0.43% active. purified cruzain, Z-FR-AMC fluorescence, 0.01% Triton; active = well fitted curve in the direction sought with a large enough effect; inconclusive = small, poorly fitted or top-dose-only effect, or another doubt; inactive = no such curve, though single readings can be large; an effect the other way counts as inactive or inconclusive;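 note: plate controls were neutral wells for no effect and buffer without enzyme for full effect; nearly all actives have a fitted effect of over 40% in size; top concentration of the series not given in the record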
Target sequence (P25779 123-467 limits assumed): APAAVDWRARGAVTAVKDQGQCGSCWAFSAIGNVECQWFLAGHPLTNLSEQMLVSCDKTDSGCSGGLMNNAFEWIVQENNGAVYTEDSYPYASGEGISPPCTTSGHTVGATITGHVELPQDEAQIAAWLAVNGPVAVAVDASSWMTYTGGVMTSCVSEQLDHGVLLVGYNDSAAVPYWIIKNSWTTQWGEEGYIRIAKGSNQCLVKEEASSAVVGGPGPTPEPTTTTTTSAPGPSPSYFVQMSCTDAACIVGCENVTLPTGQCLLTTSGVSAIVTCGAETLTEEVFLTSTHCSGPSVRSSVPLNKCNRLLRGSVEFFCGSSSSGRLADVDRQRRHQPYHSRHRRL
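Steps: dispense cruzain (1.5 nM final) in acetate buffer pH 5.5 with DTT and 0.01% Triton X-100; pin-transfer compounds; incubate 15 min RT; add Z-FR-AMC (2 uM final); read fluorescence every 30 s, using the 60 s intensity change.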
Marburg entry inh = inhibitors of Marburg virus binding or cell entry | Marburg virus pseudotyped entry inhibition, cell reporter; control for the full effect not named in the record; about a third of the inactives were read at about 46 µM | Potency, µM (titrated, usually from 37.8 µM), for inactives: at the highest dose activity change, negative = inhibition, most hits filed as inhibitors | 300,000 tested, 1.8% active | AID 540276; active = well fitted inhibition curve with a large enough effect; inconclusive = small, poorly fitted or top-dose-only effect, or effect the other way; inactive = flat fitted curve, though single readings scatter; tested in HEK293 cells; about a fifth of its hits are not listed in these tables; note: % is set by controls: 0 for no effect and ±100 for the full control effect; luciferase read-out
RE007 growth inh = less growth of the S. pombe RE007 Vpr strain; 360,000 tested, 0.21% active; S. pombe RE007 Vpr strain, BacTiter-Glo ATP luminescence, 24 h; control for the full effect not named in the record; AID 651644; Potency, µM (titrated, usually from 92.2 µM), for the others: top-dose activity change, negative = less growth; active = well fitted falling curve with a large enough effect; inconclusive = small, poorly fitted or top-dose-only effect; inactive = no such curve, though single readings can be large or run the other way;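 note: % is set by controls: 0 for no effect and ±100 for the full control effect; nearly all actives have a fitted effect of over 50% in size; the assay follows cell death caused by Vpr and the record does not say whether a fall means rescue or toxicity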
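Fission yeast RE007 carrying one integrated HIV-1 vpr copy, seeded at OD 0.01 in PMG+AL medium with 23 nL pinned compound. Grown 24 h at 30 degrees; viability read by BacTiter-Glo luminescence after 5 min.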
Cruzain inh noDet = inhibitors of Trypanosoma cruzi cruzain without detergent. P25779. purified cruzain, Z-FR-AMC fluorescence, no detergent. Potency, µM, for inactives: max response, negative = inhibition, hits mostly inhibitors. 200,000 tested, 2.3% active. AID 1476; active = well fitted curve in the direction sought with a large enough effect; inconclusive = small, poorly fitted or top-dose-only effect, or another doubt; inactive = no such curve, though single readings can be large; an effect the other way counts as inactive or inconclusive;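 note: plate controls were enzyme without inhibitor for no effect and buffer without enzyme for full effect; nearly all actives have a fitted effect of over 40% in size; top concentration of the series not given in the record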
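Detergent-free condition (0.00005% Triton X-100) in acetate buffer pH 5.5 with DTT. 1.5 nM enzyme and compound were pre-mixed 15 min, then 2 uM Z-FR-AMC substrate added; reaction progress from fluorescence change between first and third reads (60 s).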
NS1 function inh = inhibitors of influenza NS1 protein function; S. cerevisiae slowed by influenza A NS1, growth recovery by OD600; 270,000 tested, 0.4% active; AID 2326; Potency, µM (top dose mostly 46.1 µM), without a hit: top-dose activity, positive = more growth; note: actives are rising curves; nearly all actives have a fitted effect of over 50% in size
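Growth recovery, yeast-based: influenza A NS1 expressed in S. cerevisiae causes slow growth, and suppressors are detected by OD600. The parent strain without NS1 is used as positive control.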
* marks the source's active call; other numbers are inactive results; u = inconclusive; x = no result given; & = joins results of further samples; [ ] = dose if it differs, or a comment. Unless noted, calls come from the whole dose curve; as a rule, active means well fitted rising curve with a large enough effect; inconclusive means small, poorly fitted or top-dose-only effect; inactive means no such curve, though single readings can be large or run the other way. Potency is the fitted concentration of half-maximal effect.

SMILES	SARS PLpro yeast	Lassa entry inh	StopGo reporter	Cruzain Triton	Marburg entry inh	RE007 growth inh	Cruzain inh noDet	NS1 function inh
COc1ccccc1N1CCN(C(=O)CN2C(=O)c3ccccc3C2=O)CC1	0.1%	-7.0%	-18.4%	x	-5.1%[46.1 µM]	105.1%	x	1.0%
Clc1ncccc1-c1nc2ccccc2n1Cc1ccccc1	1.7%	0.1%	-10.6%	1.3%	3.6%	-4.3%	1.8%	-42.0%
O=C(CCc1nnc(-c2ccsc2)o1)NCc1ccccc1OC(F)(F)F	-0.4%	-8.9%[46.1 µM]	7.4%	x	u	-4.7%	x	8.5%
O=C1OC(=O)C2C3CCC(O3)C12 (stereo not given)	x	u	3.6%	1.1%&1.6%&6.5%	u	x	6.1%&1.6%&-0.8%	-9.7%
Cc1cc(NC2CCCCC2)nc(NCc2ccccc2)n1	u	23.1µM*	u	-1.7%	11.6µM*	14.3%	-2.4%	-40.4%
CCOC(=O)CN(C(=O)CSc1nnc(CNc2ccc(C)cc2C)n1CC)c1ccccc1	2.8%	15.8%	-27.0%	0.2%	-16.6%&-16.6%	-1.6%	u	-7.9%
CC(=O)c1ccc(Oc2ncnc(N)c2[N+](=O)[O-])cc1	1.0%	-2.3%[46.1 µM]	u	x	u	-0.7%	x	5.9%
CN(C)S(=O)(=O)c1ccc(NC(=O)Cn2ccsc2=N)cc1	3.7%	x	6.0%	x	x	-6.4%	x	4.3%
COc1ccc(C2CCCN2CC(O)COc2ccccc2C(C)C)cc1 (stereo not given)	-1.3%	u	-8.8%	x	u	-20.6%	x	-2.6%
O=C1NCC(O)=C1C=NC12CC3CC(CC(C3)C1)C2	1.9%&5.2%	3.4%&1.6%	x	7.4%&0.4%	23.6%&21.9%	6.3%&13.6%	3.3%&-1.4%	16.1%&-4.7%
CCOc1nc(NC(=O)NS(=O)(=O)c2cccc(Cl)c2)nc(-c2ccccc2)n1	-12.7%	-1.0%	21.3%	-2.2%	12.6%	-6.7%	12.3%	13.0%
COc1ccc(C(=O)n2nc(-c3ccc(Cl)cc3)nc2NCc2ccco2)cc1	x	13.4%[46.1 µM]	2.6%	0.5%	6.3%[46.1 µM]	x	22.5%	x
COc1ccc(NS(=O)(=O)c2ccc3nc(COc4cccc5ccccc45)[nH]c3c2)cc1	-10.5%	u	-20.3%	-2.4%	14.6µM*	-24.2%	31.6µM*	22.4µM*
N#CC(C#N)=Cc1ccc(OCC(=O)N2CCOCC2)cc1	-2.6%	x	-4.9%	x	-17.7%[46.1 µM]	2.4%	x	x
CCS(=O)(=O)c1ccc(O)c(NC(=O)COc2ccc(OC)cc2)c1	14.0%	1.4%	-18.4%	-3.3%	-8.0%	x	-1.3%	4.1%
CC1CCN(S(=O)(=O)c2ccc3c(c2)n(C)c(=O)n3C)CC1	8.5%	-1.0%[46.1 µM]	-2.4%	x	1.8%[46.1 µM]	-0.8%	x	0.9%
COC(=O)C1=C(C)NC(=O)/C1=C\c1cc(C)n(-c2cccc(C)c2)c1C	-4.1%	u	-16.8%	-9.0%	-29.3%	19.1%	-2.9%	16.1%
Cc1cccc(NC(=O)C2c3ccccc3C(=O)N3CCc4ccccc4C23)n1 (stereo not given)	11.5%	-0.4%	-16.2%	-2.0%	-10.6%	-4.3%	-3.4%	-16.5%
O=C(Nc1c(C(=O)c2ccc(F)cc2)oc2ccccc12)c1cc(-c2ccccc2)on1	x	-0.4%[46.1 µM]	8.1%	-3.3%	-5.4%[46.1 µM]	x	-16.6%	x
COc1ccc(CN2CCN(C(C)C)C(CCO)C2)cc1Cn1cccn1 (stereo not given)	0.8%	-25.6%	-13.8%	x	-14.4%[46.1 µM]	5.3%	x	-0.9%
COC(=O)c1c(NC(=O)COc2ccc(Cl)cc2C)sc2c1CCCCC2	x	8.3%[46.1 µM]	-15.9%	-3.5%	x	x	13.0%	x
CCOC(=O)CN1C(=O)C(O)=C(C(C)=O)C1c1ccc([N+](=O)[O-])cc1 (stereo not given)	8.4%	-0.5%	0.3%	2.3%	6.2%	2.6%	-4.1%	2.9%
Cc1cc(=O)c2ccccc2s1	-4.1%	20.4%	x	-11.3%	7.0%	-18.2%	-7.1%	-19.3%
Cc1ccc(NC(=O)CSCC(=O)Nc2ccc(N3CCOCC3)cc2N2CCOCC2)cc1	-0.9%	18.6%	0.3%	x	u	-2.6%	x	x
CC1=C(C(=O)Nc2cccc(C(=O)NC3CCCC(C)C3C)c2)SCCO1 (stereo not given)	-1.3%	x	-21.9%	x	x	-8.9%	x	-9.2%
O=C(NCCS(=O)(=O)N1CCN(c2cccc(Cl)c2)CC1)C(c1ccccc1)c1ccccc1	x	u	-8.5%	-2.4%	x	x	8.1%	x
Cc1ccc(C(=O)c2ccccc2C(=O)OCC(=O)N2CCCC2)cc1	8.4%	-7.4%[46.1 µM]	38.0%[activator]	x	u	13.7%	x	x
Cc1cccc(NC(=O)Cc2csc(COc3cccc(C)c3)n2)c1	x	-7.2%[46.1 µM]	5.4%	-10.1%	12.0%[46.1 µM]	x	3.1%	x
CCOC(=O)N1CCC(N2CCN(S(=O)(=O)c3ccc(Cl)cc3)CC2)CC1	18.7%	-3.9%	-14.9%	11.0%	-0.7%	-0.8%	-13.2%	-8.2%
O=C(CNC(=O)c1cccs1)N/N=C/c1cccc(Br)c1	-3.1%	13.0%[46.1 µM]	2.3%	x	26.3%[46.1 µM]	1.6%	x	1.9%
CCc1nnc(NC(=O)C2CCCN2S(=O)(=O)c2ccc(C)cc2)s1 (stereo not given)	-2.8%	-11.3%	-13.4%	5.6%	26.0%[46.1 µM]	12.7%	4.7%	-7.4%
Cc1nn2c(N)c(-c3ccccc3)cnc2c1-c1ccccc1	-1.9%	5.3%	35.1%[activator]	x	u	3.7%	x	-10.1%
O=C(NCC(=O)N1CCCCCC1)c1ccc(Br)cc1	-9.1%	11.6%[46.1 µM]	21.9%	x	u	2.0%	x	10.5%
CCOc1ccccc1NC(=O)c1c(NCc2sccc2C)sc2c1CCCCC2	x	0.1%[46.1 µM]	30.9%[activator]	-12.3%	x	x	1.6%	x
COc1ccc(NC(=O)N2CCN(S(C)(=O)=O)CC2)c(OC)c1	-0.8%	-5.4%	0.8%	x	u	-6.9%	x	7.5%
COc1cc(CCC(=O)Nc2cccc(S(=O)(=O)N(C)C)c2)cc(OC)c1OC	14.1%	-11.2%	u	0.7%	-15.4%	-1.5%	-2.3%	6.3%
O=C(CSc1ncc(-c2ccc(F)cc2)[nH]1)NCc1ccco1	-2.0%	9.6%	x	-3.4%	21.0%	-3.2%	6.6%	-9.0%
Cc1nc2c3ccccc3nc(NNC(=O)CCC(=O)N3CCCC(C)C3)n2n1 (stereo not given)	1.4%	x	-12.0%	x	x	-11.2%	x	-4.2%
C/C(=N/NC(=O)OC(C)(C)C)c1ccco1	-5.1%	8.2%	20.3%	-0.2%	6.7%	1.7%	0.0%	7.1%
CCc1ccccc1NC(=O)c1sc2nc3n(c(=O)c2c1C)CCC3	x	-9.2%[46.1 µM]	4.3%	-4.1%	x	x	16.3%	x
CCc1ccc(/C=C2/C(=O)N(C)C(=S)N2CC(=O)OC)s1	-1.0%	x	-17.7%	x	x	-21.7%	x	-2.5%
O=C(CCN1C(=O)c2cccc3cccc(c23)C1=O)Nc1ccon1	1.3%	2.8%[46.1 µM]	4.5%	x	u	8.0%	x	2.5%
O=C(Nc1ccc(S(=O)(=O)N2CCOCC2)cc1)c1cc([N+](=O)[O-])ccc1Cl	u	0.5%[46.1 µM]	-28.6%	x	-1.6%[46.1 µM]	-7.6%	x	1.2%
Cc1cc(C)nc(SCCN2CCOCC2)n1	1.9%	2.1%	-2.8%	1.9%	-0.4%	-16.7%	5.8%	5.5%
Cc1ccc(CNC(=O)Cn2cc(C(=O)c3ccc(F)cc3)c(=O)c3ccc(C)nc32)cc1	x	20.0%[46.1 µM]	-9.0%	0.2%	x	x	-4.5%	x
COc1ccc(CNC(=O)C(=O)NCCCn2ccnc2)cc1	0.4%	-15.2%[46.1 µM]	-4.9%	x	u	6.5%	x	0.0%
O=[N+]([O-])c1cccnc1N1CCC(c2cc(-c3ccc(Cl)cc3)n[nH]2)CC1	-36.0%	u	u	-8.2%	u	13.4%	u	-66.6%
Cn1c(=O)c2c(nc(Oc3ccccc3)n2C)n(C)c1=O	-0.3%&4.7%	6.0%	-21.5%	-3.0%	-5.0%	-9.2%	-1.0%	1.2%&-3.1%
O=C(Nc1ccc2oc(-c3cccnc3)nc2c1)c1cccc(Br)c1	x	27.3%[46.1 µM]	-0.6%	-5.0%	-13.1%[46.1 µM]	x	1.4%	x
Cc1ccc(OCc2nnc(SCC(=O)Nc3cc(C)on3)n2C)cc1	-1.0%	1.3%	-12.7%	-0.1%	1.6%	-12.7%	u	-3.4%
Cc1nc(C)c(C(=O)NNC(=O)Nc2ccc(Cl)cc2)s1	0.4%	x	-8.4%	x	x	1.3%	x	8.2%
Nn1c(Cc2ccccc2F)nnc1SCn1nnc2ccccc2c1=O	2.5%	12.2%	14.3%	0.8%	3.6%[46.1 µM]	13.3%	-16.7%	-5.8%
CCCOc1ccc(-c2nc(N3CCC(C)CC3)c3ccccc3n2)cc1	x	-1.2%[46.1 µM]	2.0%	-1.1%	x	x	-4.5%	x
Cc1c(NS(=O)(=O)c2ccc3c(c2)c(=O)n(C)c(=O)n3C)c(=O)n(-c2ccccc2)n1C	-1.3%	1.3%	7.6%	4.0%	-12.7%	-4.9%	-8.2%	0.7%
CCOC(=O)N1CCC(NC(=O)CSCc2nc(-c3ccc(OC)cc3)oc2C)CC1	0.3%	-16.7%[46.1 µM]	-20.5%	x	5.8%[46.1 µM]	-2.7%	x	7.6%
COc1ccc(C(C)=O)cc1CC(=O)Nc1ccccc1-c1ccccc1	4.3%	1.3%[46.1 µM]	-7.0%	x	-3.1%[46.1 µM]	-6.1%	x	-3.1%
COc1cccc(S(=O)(=O)Nc2ccc(C(=O)N3CCOCC3)cc2)c1	1.5%	-4.9%	12.4%	3.2%	12.5%	11.1%	u	2.8%
CN(CC(=O)Nc1ccccc1Cl)C(=O)CSc1nncn1C	-1.8%	-3.1%[46.1 µM]	-24.9%	x	u	1.8%	x	x
COc1ccc(C2=CSC3=C(C(=O)c4cccc(S(=O)(=O)N(C)C)c4)CCN23)cc1	-6.7%	-15.3%	-3.2%	-7.6%	-29.9%	-0.1%	25.1µM*	16.2%
